Compound activity as filed in PubChem BioAssay.
VDR inh: blocks the human vitamin D receptor | 0.93% of 400,000 active | P11473 | Potency, µM, for inactives: max response, negative = inhibition, hits mostly inhibitors | VDR-SRC2-3 peptide fluorescence polarization, 2 h; active = well fitted inhibition curve with a large enough effect; inconclusive = small, poorly fitted or top-dose-only effect, or another doubt; inactive = no such curve, though single readings can be large or run the other way; note: series mostly up to about 120 µM
Target sequence (P11473 whole entry, looked up): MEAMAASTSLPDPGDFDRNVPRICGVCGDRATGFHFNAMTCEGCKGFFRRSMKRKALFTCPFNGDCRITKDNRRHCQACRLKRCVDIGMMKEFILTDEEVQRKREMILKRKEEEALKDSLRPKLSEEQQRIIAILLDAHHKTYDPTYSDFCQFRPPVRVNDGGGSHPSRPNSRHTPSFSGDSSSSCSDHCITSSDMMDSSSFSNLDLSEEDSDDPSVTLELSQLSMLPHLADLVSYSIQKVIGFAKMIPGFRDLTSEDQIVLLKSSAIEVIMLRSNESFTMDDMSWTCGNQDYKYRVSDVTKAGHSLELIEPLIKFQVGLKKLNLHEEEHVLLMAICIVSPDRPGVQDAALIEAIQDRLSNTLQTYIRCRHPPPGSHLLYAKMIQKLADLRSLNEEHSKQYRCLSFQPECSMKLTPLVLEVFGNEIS
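Signal is fluorescence polarization, reporting how far test compounds block the interaction of VDR with the SRC2-3 coregulator peptide after a 2 h room-temperature incubation.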
* = called active by the depositor; & = joins results of further samples. % is set by controls: 0 for no effect and ±100 for the full control effect; potency is the fitted concentration of half-maximal effect. Only part of the results is shown; rates above refer to the full screens.

`O=C(NS(=O)(=O)Oc1ccccc1F)OC[C@@H]1CCCN2CCCCC12` (some centres not stated) gave VDR inh -5.3%.
COc1ccc(N2CCN(C(=O)c3c(Cl)cnn3C)CC2)cc1 was read as VDR inh 6.3%.
`O=S(=O)(Nc1cccc2cccnc12)C1CC1` gave VDR inh -24.2%.
For Cc1cc(NC(=O)CSc2nnc3ccccn23)no1 the results were VDR inh -21.0%.
`O=C(CN1C(=O)c2ccccc2S1(=O)=O)c1ccc(OC(F)F)cc1` gave VDR inh -14.3%.
Screening O=C(COc1ccccc1)N1CCc2ccccc21 returned VDR inh 16.7%.
For CCCCCOP(=O)(c1ccccc1)c1ccccc1 the results were VDR inh -16.7%.
For CCc1ccc(C(=O)Nc2nnn(CC)n2)cc1 the results were VDR inh 1.7%.
`CCOC(=O)c1csc(NC(=O)CSc2nnnn2-c2cccc(OC)c2)n1` gave VDR inh 1.1%.
CC(C)NC(NC(=O)/C=C/c1ccccc1)C(Cl)(Cl)Cl (configuration not stated) was read as VDR inh 5.2%.
COCc1nn2c(N)c(-c3ccccc3)cnc2c1-c1ccccc1 was read as VDR inh 15.0%.
CC(=O)Nc1ccc(NC(=O)C(c2ccccc2)N2Cc3ccccc3C2=O)cc1 (configuration not stated) was read as VDR inh 19.9%.
Screening CCOc1ccc(-c2nc3n(c(=O)c2C#N)CCCS3)cc1 returned VDR inh -6.9%.
Screening Cc1onc(-c2ccccc2)c1C(=O)N/N=C/c1c[nH]c2ccccc12 returned VDR inh 3.2%.
Screening COCCN(C(=O)CSc1nnc(Nc2ccccc2F)s1)c1c(N)n(Cc2ccccc2)c(=O)[nH]c1=O returned VDR inh 21.2%.
Cc1ccc(CNC(=O)c2cc(-c3ccccc3)n(Cc3cc(C)no3)n2)cc1 was read as VDR inh 2.1%.
CCOC(=O)N1CCC(NC(=O)C(C)n2c3ccccc3c3cnn(C)c(=O)c32)CC1 (configuration not stated) was read as VDR inh -9.5%.
For COCCN(CCOC)c1nc(-c2ccc(Cl)cc2)nc2ccccc12 the results were VDR inh inconclusive.
Cn1c(SCC(=O)NC2CC2)nnc1-c1cccs1 was read as VDR inh -7.1%.
For O=C(Nc1ccc(F)cc1)c1ccccc1F the results were VDR inh -9.2%.
For COC(=O)CC(NC(=O)c1ccco1)c1cccc2ccccc12 (configuration not stated) the results were VDR inh -17.9%.
For CC(=O)Nc1ccc(C)cc1NC(C)=O the results were VDR inh 1.5%.
`CCCCN(C)C(=O)CN1C(=O)CCn2nc(-c3cn(C)c4ccccc34)cc21` gave VDR inh 20.9%.
CCn1c(=O)c2cc(C(=O)NCCCN3CCN(c4ccc(F)cc4)CC3)sc2c2ccccc21 was read as VDR inh -13.5%.
Screening O=C(O)c1ccccc1SCC(=O)N1c2ccccc2Sc2ccccc21 returned VDR inh -19.4%.
For COCC(C)n1c(SCC(=O)N2CC(=O)Nc3ccccc32)nc2ccccc2c1=O (configuration not stated) the results were VDR inh -28.1%.
`O=C(NCCN1CCOCC1)c1ccc2c(c1)N(Cc1ccccc1F)C(=O)c1ccccc1S2(=O)=O` gave VDR inh -16.2%.
`O=C(Nc1ccon1)c1ccc2c(c1)OCO2` gave VDR inh -0.1%.
`COC(=O)c1ccccc1NC(=O)c1ccco1` gave VDR inh -1.8%.
Screening CCC(C)NC(=O)c1ccc(NC(=O)C2=C(C)OCCS2)cc1 (configuration not stated) returned VDR inh -1.2%.
`CCc1nnc(NC(=O)CSc2nc(C)c3c(c2C#N)CCCC3)s1` gave VDR inh 16.4%.
`COc1ccc(Oc2ncccc2[N+](=O)[O-])cc1` gave VDR inh -6.0%.
`CC1=NN(c2ccccc2)C(=O)/C1=C/N(C)C` gave VDR inh -2.4%.
For Cc1c([N+](=O)[O-])c([N+](=O)[O-])nn1CC(=O)N1CCOCC1 the results were VDR inh -5.4%.
`Cc1ccccc1S(=O)(=O)c1c(C)cc(C)n(C)c1=O` gave VDR inh 7.6%.
COc1cc2c(cc1OC)C(C)N(CCN1C(=O)c3ccccc3C1=O)CC2 (configuration not stated) was read as VDR inh -20.9%.
COc1ccccc1N1CCN(/N=C\c2ccccc2)CC1 was read as VDR inh -6.4%.
Screening CCCn1c(CCC(=O)Nc2ccccc2OC)nc2cccnc21 returned VDR inh inconclusive.
Screening CCCc1nnc(SCC(=O)Nc2cccc(C(F)(F)F)c2)o1 returned VDR inh -6.1%.
Screening COc1ccc(NC(=O)CN(C)C(=O)C(C)N2C(=O)c3ccccc3C2=O)cc1 (configuration not stated) returned VDR inh 7.3%.

Four entries picked at random from the list so far:
Screening CCCc1nnc(SCC(=O)Nc2cccc(C(F)(F)F)c2)o1 returned VDR inh -6.1%.
`O=C(Nc1ccon1)c1ccc2c(c1)OCO2` gave VDR inh -0.1%.
`Cc1ccccc1S(=O)(=O)c1c(C)cc(C)n(C)c1=O` gave VDR inh 7.6%.
`COc1ccc(Oc2ncccc2[N+](=O)[O-])cc1` gave VDR inh -6.0%.

(more compounds)
`O=C1C(O)CCN1C1CCCCC1` (configuration not stated) gave VDR inh -2.5%.
Cn1cnc2c(NCc3ccco3)ncnc21 was read as VDR inh -7.7%&-13.3%.
`COc1ccc(CCNC(=O)c2cc3c(=O)n(C)c4ccccc4c3n2C)cc1OC` gave VDR inh 6.5%.
CCN1CCN(C(=O)N(c2ccccc2)c2ccccc2)CC1 was read as VDR inh -1.8%.
Screening CCOC(=O)c1ccc(NC(=O)c2noc3c2CCCC3)cc1 returned VDR inh 5.9%.
C=CCn1c(Cc2cccs2)nnc1SCC(=O)Nc1cccc(OC)c1 was read as VDR inh 7.5%.
`COc1ccc(CCn2c(=O)c3cccnc3n(Cc3cccc([N+](=O)[O-])c3)c2=O)cc1OC` gave VDR inh -10.7%.
`CC1CCN(CCCCOc2ccccc2-c2ccccc2)CC1` gave VDR inh -17.5%.
`CN(Cc1ccccc1)C(=O)C1CCN(S(=O)(=O)Cc2ccccc2)CC1` gave VDR inh 13.4%.
`COc1cc(C(=O)N(Cc2cccnc2)c2nc3cc(C)c(C)cc3s2)cc(OC)c1OC` gave VDR inh 11.9%.
CS(=O)(=O)N1CCN(C(=O)NC2CCCCC2)CC1 was read as VDR inh 17.1%.
Cc1[nH]cnc1CN1CCc2c(c3ccccc3n2C)C1=O was read as VDR inh 2.2%&-31.9%.
O=C(CN(c1cc(C(F)(F)F)ccc1Cl)S(=O)(=O)c1ccccc1)NCc1cccnc1 was read as VDR inh 5.1%.
C=CCOc1ccccc1CN(CCc1ccccc1)C(=O)c1cccc(S(C)(=O)=O)c1 was read as VDR inh 1.4%.
Cc1nn(C)c2c1c(C(F)(F)F)cc(=O)n2CC(=O)NCc1ccc(OC(C)C)cc1 was read as VDR inh 10.9%.
For CCOCCCNc1nc2c(c(=O)[nH]c(=O)n2C)n1CCCc1ccccc1 the results were VDR inh 15.2%.
Screening CCc1ccc(-c2nc(CS(=O)CC(=O)NCCCN3CCC(C)CC3)c(C)o2)cc1 (configuration not stated) returned VDR inh -8.8%.
For CC(c1nnc(SCC(=O)NC(=O)NCc2ccco2)n1-c1ccc(Cl)cc1)N(C)C (configuration not stated) the results were VDR inh 12.7%.
Screening O=C(CCl)NC1CCCc2ccccc21 (configuration not stated) returned VDR inh 3.4%.
`CCOc1ccccc1CNC(=O)c1oc2c(c1C)-c1nn(Cc3cccc(Cl)c3)cc1CC2` gave VDR inh 1.7%.
Screening CCOC(=O)C1Oc2ccccc2C(c2ccccc2)=C1C(C)=O (configuration not stated) returned VDR inh -19.2%.
Screening CN(C)c1ncc2nc(-c3ccccc3)c(=O)n(-c3ccccc3)c2n1 returned VDR inh 2.3%.
`N#CC1=C(N)Oc2nc[nH]c(=O)c2C1c1cccs1` (configuration not stated) gave VDR inh 5.0%.
`CC1=C(C(=O)OCc2ccccc2)C(/C=C/c2ccccc2)N2C(=O)CCSC2=N1` (configuration not stated) gave VDR inh -4.7%.
Screening O=C1C(=O)N(Cc2cccnc2)C(c2ccccn2)/C1=C(/O)c1ccc(Br)cc1 (configuration not stated) returned VDR inh -14.9%.
NS(=O)(=O)c1ccc(NC(=O)c2ccc(-c3ccccc3)cc2)cc1 was read as VDR inh 12.6%.
`Cc1ccc(CN2CCC(CNC(=O)Nc3cccc(Cl)c3C)C2)cc1` (configuration not stated) gave VDR inh -9.0%.
O=S(=O)(c1ccccc1)N1CCN(S(=O)(=O)c2ccc(F)cc2)CC1 was read as VDR inh 1.8%.
`Cc1cccc(C(=O)NCC(=O)OCc2cc(=O)n3nc(C)sc3n2)c1` gave VDR inh 14.1%.
`O=S(=O)(c1ccccc1)N1CCN=C1SCc1cccnc1` gave VDR inh 0.3%.
For Cc1ccc(S(=O)(=O)N2CCCCC2)cc1NC(=O)c1ccccc1Cl the results were VDR inh 2.9%.
Cc1ccc(NC(=O)c2n[nH]c(=O)c3ccccc23)cc1S(=O)(=O)N1CCOCC1 was read as VDR inh 4.6%.
For COc1ccc(NC(=O)CN(C)C(=O)c2cnc(Cl)c(Cl)c2)cc1 the results were VDR inh -14.9%.
Screening COc1ccc(Cl)cc1S(=O)(=O)Nc1ccc2[nH]c(=O)[nH]c2c1 returned VDR inh -10.0%.
Screening Cc1ccc2oc(=O)c(/C=C(\O)c3sc(C)nc3C)nc2c1 returned VDR inh -14.3%.
CN1C(=O)N(C)c2ccc(C=O)c3cccc1c23 was read as VDR inh -5.5%.
`COc1ccc2c(c1)c(C(=O)N/N=C/c1cn(C)c3ccccc13)c(C)n2C` gave VDR inh 11.8%.
COc1cc2c(cc1OC)CN(C(=O)c1ccc(OC)c(S(=O)(=O)N3CCOCC3)c1)CC2 was read as VDR inh -9.6%.
`CCOC(=O)Nc1ccc(OCc2nnc3c4ccccc4c(C)nn23)cc1` gave VDR inh -3.7%.
`Cc1cc(C)c(OCC(=O)OCC(=O)N(C)C2CCS(=O)(=O)C2)c(C)c1` (configuration not stated) gave VDR inh 7.4%.

Some of these compounds in order of heavy-atom count, largest number first.
`CCOC(=O)Nc1ccc(OCc2nnc3c4ccccc4c(C)nn23)cc1` gave VDR inh -3.7%.
`Cc1ccc(CN2CCC(CNC(=O)Nc3cccc(Cl)c3C)C2)cc1` (configuration not stated) gave VDR inh -9.0%.
`O=S(=O)(c1ccccc1)N1CCN=C1SCc1cccnc1` gave VDR inh 0.3%.
`N#CC1=C(N)Oc2nc[nH]c(=O)c2C1c1cccs1` (configuration not stated) gave VDR inh 5.0%.

Returning to the listing, repeating the 5 entries before the break.
CN1C(=O)N(C)c2ccc(C=O)c3cccc1c23 was read as VDR inh -5.5%.
`COc1ccc2c(c1)c(C(=O)N/N=C/c1cn(C)c3ccccc13)c(C)n2C` gave VDR inh 11.8%.
COc1cc2c(cc1OC)CN(C(=O)c1ccc(OC)c(S(=O)(=O)N3CCOCC3)c1)CC2 was read as VDR inh -9.6%.
`CCOC(=O)Nc1ccc(OCc2nnc3c4ccccc4c(C)nn23)cc1` gave VDR inh -3.7%.
`Cc1cc(C)c(OCC(=O)OCC(=O)N(C)C2CCS(=O)(=O)C2)c(C)c1` (configuration not stated) gave VDR inh 7.4%.
`Cc1ccc(-c2[nH]nc3c2C(C)C(C#N)=C(N)O3)cc1` (configuration not stated) gave VDR inh -13.5%.
`C#CCSc1nnc(-c2cccc3ccccc23)o1` gave VDR inh 1.7%.
`COc1ccc(Br)cc1C(=O)Nc1cccc(-c2nnc(-c3ccco3)o2)c1` gave VDR inh 2.8%.
For O=C(Cc1ccccc1)NC1CC(=O)N(c2ccc3c(c2)OCCO3)C1 (configuration not stated) the results were VDR inh 4.4%.
Screening O=C(COC(=O)C1=NNC(=O)CC1)NCCc1ccccc1 returned VDR inh 6.6%.
`Cc1cccc(CCNC(=O)c2cc3ccccn3n2)c1` gave VDR inh 8.2%.
For COc1ccc(NS(=O)(=O)c2cccc3cccnc23)cc1 the results were VDR inh -4.0%.
`Cc1cccc2cc(C#N)c(SCC(=O)N3CC(=O)Nc4ccccc43)nc12` gave VDR inh -1.5%.
Screening CCOC(=O)C1(CCc2ccccc2)CCN(Cc2ccc(O)cc2)CC1 returned VDR inh -4.7%.
Screening CCn1c(=O)c2c(O)cc(=O)oc2c2ccccc21 returned VDR inh -6.7%.
`c1ccc(CCc2nc(-c3ccncc3)no2)cc1` gave VDR inh -3.9%.
COC(=O)c1ccc(CNC(=O)COC(=O)/C=C/c2ccc(OC)c(OC)c2)cc1 was read as VDR inh -28.3%.
CCCC(=O)NC(=S)Nc1cccc(Cl)c1N1CCCC1 was read as VDR inh 24.1%.
CC12CC(NC(=O)N1c1ccc(C(=O)N3CCN(c4ccc(F)cc4)CC3)cc1)c1ccccc1O2 (configuration not stated) was read as VDR inh 6.7%.
For CN1C(=O)NC(c2ccccc2)(C(F)(F)F)S/C1=C(/C#N)c1nnc(N2CCOCC2)n1-c1ccccc1 (configuration not stated) the results were VDR inh 13.1%.
Cc1nc2nc3c(cn2n1)C(=O)CC(C)(C)C3 was read as VDR inh 3.8%.
CC(C)C(NS(=O)(=O)c1cccc2nsnc12)C(=O)Nc1nccs1 (configuration not stated) was read as VDR inh 8.8%.
COc1ccc(-c2nnc(N)s2)cc1 was read as VDR inh -5.4%.
C=C(C)Cn1c(CCNC(=O)CCC)nc2ccccc21 was read as VDR inh 5.9%.
